HSD17B inhib – qHTS Assay for Inhibitors of HSD17B4, hydroxysteroid (17-beta) dehydrogenase 4. hit rate 7.6% among 75,000. 3-hydroxyacyl-CoA dehydrogenase type-2 (Homo sapiens), Q99714. Potency, µM (series often up to 57.1 µM), for the others: at the top dose activity change, negative = inhibition, hits mostly inhibitors. recombinant HSD17B10, NADH fluorescence kinetic; many of its hits are not listed in these tables; active = well fitted inhibition curve with a large enough effect; inconclusive = small, poorly fitted or top-dose-only effect; inactive = no such curve, though single readings can be large or run the other way;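 note: the protocol describes HADH2 (HSD17B10) and not the HSD17B4 of the title; nearly all actives have a fitted effect of over 70% in size; most hits overshoot -100% by far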
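20 nM HADH2, pH 9.0 Tris/Tween; cpd preinc 15 min RT; start w/ 1 mM NAD+ + 90 uM b-hydroxybutyryl-CoA; kinetic fluor ex360/em450 q30s x 4 min; delta last-first.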
* hit, by the source's call; u = inconclusive; & = joins results of further samples; [ ] = remark or other dose. % is set by controls: 0 for no effect and ±100 for the full control effect; potency is the fitted concentration of half-maximal effect.

SMILES	HSD17B inhib
O=C(Nc1c(C(=O)O)[nH]c2ccccc12)NC1CCCCC1	32µM*
Nc1cc(CN2C(=O)c3ccccc3C2=O)cc(Cl)c1O	1%
CC(C)(C)c1[nH]nc2c1C(c1ccc(OC(=O)c3ccco3)cc1)C(C#N)=C(N)O2 (stereo not drawn)	-3%
COc1ccc(OC)c(C(c2nnnn2CCc2ccccc2)N2CCN(c3ccccc3)CC2)c1 (stereo not drawn)	-5%
Cc1csc2nc(CNS(=O)(=O)N(C)C)cn12	5%
O=C(c1cccc(F)c1)N1CCC2(CC1)CCN(c1ccc(-c3ccccc3)cc1)CC2	-14%
O=C(Nc1ccc2c(c1)OCO2)c1cccc(S(=O)(=O)N2CCCC2)c1	-19%
O=C1NCC(COCc2ccco2)O1 (stereo not drawn)	-18%
O=C(Nc1ccc2c(c1)nc1n2CCOC1)c1ccccc1	20%
O=C(NCc1ccco1)C1CCCN(S(=O)(=O)c2cccc3nonc23)C1 (stereo not drawn)	-24%
O=C(O)CSc1nnc(-c2ccc(S(=O)(=O)N3CCCC3)cc2)n1Cc1ccco1	-3%
O=C(CC1SC(=NC2CCCCC2)NC1=O)Nc1ccccc1 (stereo not drawn)	-5%
C1=C(CN2CCOCC2)COc2c1cccc2OC[C@@H]1CNCCO1	-11%
C=CCC(CC=C)(C(=O)O)c1ccccc1	4%
Cc1ccc(-n2c(SCC(=O)OC(C)C)nnc2-c2ccco2)cc1	-2%
CCOC(=O)C1CCN(C(=O)COc2ccc(S(=O)(=O)NC(C)C)cc2)CC1	10%
COc1ccc(N2C(=O)C3CCCN3C2c2ccccc2Cl)cc1 (stereo not drawn)	-1%
CCOc1cccc(OCCCCN2CCOCC2)c1	4%
O=C(Nc1nc(-c2cccs2)c(-c2ccccc2)s1)c1ccco1	u
Cc1cc(N/C(=N\S(=O)(=O)c2ccc(Cl)cc2)c2ccc(F)cc2)no1	7%
Cc1cc(C(=O)N2CCN(S(C)(=O)=O)CC2)sc1-c1ccccc1	-9%
COc1ccc(CC(=O)NCc2ccccn2)cc1OC	6%
O=C(NCC(c1cccnc1)N1CCN(c2ccccc2)CC1)OCc1ccccc1 (stereo not drawn)	3%
Cc1ccc(S(=O)(=O)N(CC(=O)NCc2ccncc2)C2CCCCC2)cc1	-6%
CCSc1ccc2nnc(-c3ccc(F)cc3)n2n1	32µM*
Cc1ccc([N+](=O)[O-])cc1S(=O)(=O)N(C)C	3%&5%&-8%
Nc1c(NCc2ccccc2)c2ccccc2oc1=O	3%
COc1ccc(Oc2ncc3nc(-c4ccc(F)cc4)c(=O)n(C4CC4)c3n2)cc1	u
Cc1c(C(=O)N2CCCCCC2)oc2ccccc12	3%
Cc1cccc(NC(=O)C2CCCN2C(=O)OCC(C)C)c1 (stereo not drawn)	4%

Reprinted from the part before: two entries, then new ones.
SMILES	HSD17B inhib
Cc1c(C(=O)N2CCCCCC2)oc2ccccc12	3%
Cc1cccc(NC(=O)C2CCCN2C(=O)OCC(C)C)c1 (stereo not drawn)	4%
CCOC(=O)N1CCC(Nc2ncnc3c2cnn3-c2ccc(Cl)cc2)CC1	5%
CC(CCc1ccccc1)NC(=O)C1CCN(S(=O)(=O)N2CCCCC2)CC1 (stereo not drawn)	-3%
O=C1CN(C(=O)c2ccccc2)c2ccccc2N1	10%
COc1ccccc1N(CC(=O)NCc1ccccc1)S(C)(=O)=O	-5%
CC(NS(=O)(=O)c1ccccc1)C(c1cccs1)N1CCN(c2ccccc2)CC1 (stereo not drawn)	u
N#CCSc1nnc(-c2ccc(S(=O)(=O)N3CCOCC3)cc2)n1CC1CCCO1 (stereo not drawn)	-1%
COC(=O)[C@H](CCSC)NC(=O)NCc1ccc(S(N)(=O)=O)cc1	4%
COc1cc(C(=O)N2CCN(S(=O)(=O)c3ccc(C)cc3)CC2)ccc1OCc1c(C)noc1C	-2%
O=C(O)c1ccccc1C(=O)Nc1ccc(S(=O)(=O)Nc2nccs2)cc1	0%
Cc1ccc(C)n1NC(=O)c1cccs1	-13%
CCOCCn1c(COc2ccccc2)nc2ccccc21	11%
CCCOc1ccc(N2C(=O)CC(N3CCOCC3)C2=O)cc1 (stereo not drawn)	-1%
Cn1c2c(c(=O)n(C)c1=O)C(c1ccc(O)cc1)Nc1ccccc1O2 (stereo not drawn)	-8%
COc1cc(C)c(C)cc1S(=O)(=O)N1CCN(Cc2ccccc2)CC1	-4%
CCOC(=O)C1=C(C)NC(SCC(N)=O)=C(C#N)C1c1ccncc1 (stereo not drawn)	-20%
Cc1ccc(-n2c(Cn3cnc4ccccc43)nnc2SCC(=O)O)cc1	24%
O=C(CSc1nc2ccccc2[nH]1)NC(=O)NCc1ccco1	-5%
O=C(O)c1cccc(NC(=O)c2cccc(NC(=O)C3CCCO3)c2)c1 (stereo not drawn)	8%
COC(=O)c1ccc2c(=O)n(CC3CCCO3)c(=S)[nH]c2c1 (stereo not drawn)	-2%
COc1cc(C(c2sc3nc(C)nn3c2O)N2CCN(c3ccccc3)CC2)cc(OC)c1OC (stereo not drawn)	-2%
CC(=O)Nc1c2c(nn1-c1ccc(C)cc1C)CSC2	1%
Cc1sc2nc3c(C(=O)N4CCN(c5ncccn5)CC4)cccn3c(=O)c2c1C	7%
CCCCCc1ccc(CC(=O)O)cc1	-1%
CC(C)C(C(=O)NCc1ccco1)N(C(=O)CNS(=O)(=O)c1ccccc1)C1CCCC1 (stereo not drawn)	8%
CCOC(=O)CNC(=O)C(Cc1ccccc1)NS(=O)(=O)c1ccc2c(c1)CCC(=O)N2 (stereo not drawn)	4%
N#Cc1cccc(-c2nc(Nc3ccccc3)c3ccccc3n2)c1	u
COc1ccccc1CN1CCCC2(CCN(S(=O)(=O)c3ccccc3)CC2)C1	-6%
COCCNC(=O)C1c2ccccc2C(=O)N(CCOC)C1c1ccc(F)cc1 (stereo not drawn)	0%
COc1ccc(CNC(=O)Cc2nn(C)c(=O)c3ccccc23)cc1	13%
COc1cc(OC)cc(C(=O)N2c3ccc(F)cc3CCC2C)c1 (stereo not drawn)	-13%
O=c1cc(CSc2ccccn2)nc(N2CCN(c3ccccc3)CC2)[nH]1	-7%
Cc1ccc(C)c(NC(=O)CSc2nnc(-c3ccco3)o2)c1	12%
COc1ccc(CN2C(=O)c3cccnc3C2Nc2ccc(OC)c(Cl)c2)cc1 (stereo not drawn)	-12%
COc1cc(Br)c(CC(=O)O)cc1OC	2%
COC(=O)C1=C(C)N(C)C(=O)NC1c1ccc(C)cc1 (stereo not drawn)	2%
COc1cc(CNC(=O)CCCCCCC(C)C)ccc1O	5%&-5%
O=C(CCSc1nnc2scc(-c3ccccc3)n12)NCc1ccc2c(c1)OCO2	-7%
Cc1oc(-c2ccc(Cl)cc2)nc1CN1CCC(C(=O)NCc2ccco2)CC1	-14%
CCC(=O)Nc1ccc(C(=O)Nc2ccc3c(c2)OCO3)cc1	-3%
COC(=O)[C@H](Cc1ccccc1)NC(=O)N1CCN(Cc2ccccc2)CC1	4%
O=C=Nc1ccc(Cl)c(Cl)c1	4%
O=C(COc1ccccc1Cl)Nc1ccc(Cl)cn1	0%
NC(=O)C1(N2CCCCC2)CCN(C(=O)CSc2nc3ccccc3o2)CC1	6%
Cc1ccccc1OCC(O)Cn1c(=N)n(CCN2CCOCC2)c2ccccc21 (stereo not drawn)	9%
COc1ccccc1C(=O)Nc1ccccc1SC	-10%
CCOC(=O)N1CCC(Nc2nc3ccccc3n3nnnc23)CC1	13µM*
COC(=O)C1C(=O)C2=C(CC1C)NC(C)=C(C(=O)OC1CCCCC1)C2c1ccc(N(C)C)cc1 (stereo not drawn)	-11%
CC1(C)CC(=O)c2c(Cc3ccccc3)n[nH]c2C1	2%
COCCn1c(SCC(=O)c2ccc3c(c2)OCCO3)nnc1-c1ccoc1C	-3%
O=C(NCc1cccs1)C1CCN(S(=O)(=O)c2cccc3nsnc23)CC1	11%

Next records follow:
SMILES	HSD17B inhib
Cn1c(=O)c2c(ncn2CC(=O)Nc2ccc(Cl)cc2Cl)n(C)c1=O	2%
CCOC(=O)c1nc(C)[nH]c1C(=O)OCC	-2%
O=C(Nc1ccc(-n2cnnn2)cc1)C1CCCN1C(=O)NC1CCCCC1 (stereo not drawn)	2%
COCCOC(=O)C1=C(C)NC2=C(C(=O)CC(C)(C)C2)C1c1ccc2c(c1)OCO2 (stereo not drawn)	-6%
O=C(c1cc(C(F)(F)F)cc(C(F)(F)F)c1)N1CCC2(CC1)CCN(c1ccccn1)CC2	6%
CCOC(=O)CSc1nc2c(c(=O)n(C)c(=O)n2C)n1CCCc1ccccc1	0%
COc1nc2c(C)cccc2cc1-c1noc(-c2ccncc2)n1	5%
CC1(C)OC(=O)C(=C2CCCN2)C(=O)O1	142%[activator]
CCCCCNC(=O)Cc1ccc(OC)cc1	4%
Cc1cccc(OCC(O)Cn2c(NCCCOC(C)C)nc3c2c(=O)[nH]c(=O)n3C)c1 (stereo not drawn)	2%
COc1cc(CN2CCN(c3cccc(Cl)c3)CC2)cc(OC)c1OC	5%
O=c1c2ccccc2nnn1CSc1ccc2c(c1)OCCO2	-12%
Cc1nc(SCc2cccc(F)c2)[nH]c(=O)c1C#N	-3%
Cc1ccc(S(=O)(=O)NCCOC(=O)Nc2sc(=S)n(C)c2C)cc1	-8%
Cc1ccc(C(CC(=O)c2ccco2)SCCO)cc1 (stereo not drawn)	54%[activator]
CNC(=O)COC(=O)c1cc(F)c(F)cc1Cl	1%
CCN(Cc1ccccc1)c1ccccc1	2%
CN(C)/C=N/c1sccc1C(N)=O	u
COc1ccc(-c2nn(C)c(=O)c3ccccc23)cc1CNS(C)(=O)=O	0%
CCOC(=O)N1CCN(C(=O)c2ccccc2-c2ccccc2)CC1	1%
CC(C)n1c(N2CCN(C(=O)NCc3ccccc3)CC2)nc2ccccc21	3%
Cc1ccc2nsnc2c1S(=O)(=O)NCc1ccc2c(c1)OCO2	u
Cn1c(N)c(C(=O)COC(=O)c2cc(C3CC3)nc3ccccc23)c(=O)n(C)c1=O	u
COc1ccc(OC(C)C(=O)Nc2cccc(OC)c2)cc1 (stereo not drawn)	2%
Cc1nc2[nH]onc2c2nccc(=O)c12	-2%
CCOC(=O)CSc1nnc(-c2ccccc2OC)o1	1%
Cc1nn(Cc2ccc(F)cc2)c(C)c1NC(=O)c1cnn2cccnc12	-29%
Cc1cc2nc(C3CCN(CC4COc5ccccc5O4)CC3)[nH]c2cc1C (stereo not drawn)	1%
O=C(CSCc1ccccc1Cl)N1CCN(c2ccccn2)CC1	32µM*
CCOc1nc(-c2ccc(OC)cc2)ccc1-c1noc(-c2ccncc2)n1	-11%
CCOC(=O)C(C)Oc1cccc2c(=O)n(CC(=O)Nc3ccc4c(c3)OCCO4)ccc12 (stereo not drawn)	u
CCCc1nc(SCC(=O)Nc2ccccc2OC)c2c(=O)n(C)c(=O)n(C)c2n1	11%
O=C(CSc1nnc(-c2ccco2)n1Cc1ccccc1)NC(=O)NCc1ccco1	-15%
COC(=O)C1C2C=CC3(CN(c4ccc(Cl)c(F)c4)C(=O)C13)O2 (stereo not drawn)	0%
OCCN(Cc1ccccc1)Cc1ccccc1F	10%
O=C(O)c1cn(-c2ccccc2)nc1-c1ccncc1	25µM*
Cc1nc2ccc(F)cc2cc1C(=O)NC(C)C	3%
Cc1cc(OCC(=O)N2CCCC2)ccc1Cl	4%
O=C(CSc1nnnn1-c1ccc2c(c1)OCCO2)OC1CCCCC1	-4%
CCC[C@H](Sc1nc(N)nc2nc[nH]c12)C(=O)O	-2%[11.4 µM]
Cc1ccc(N2CCN(C(=O)N3CCCC3)CC2)cc1Cl	-1%
C/C=C/C=[N+](\[O-])C(C)/C(=N/O)c1ccc(F)cc1 (stereo not drawn)	3%
Oc1ccccc1-c1cc(C(F)(F)C(F)F)nc(-c2ccccc2)n1	7%
CCOCCCn1c(=S)[nH]c2cc(C(=O)NCCOC)ccc2c1=O	1%

Given in markdown: part of the list above
| smiles | HSD17B inhib |
| --- | --- |
| CCOC(=O)N1CCN(C(=O)c2ccccc2-c2ccccc2)CC1 | 1% |
| CC(C)n1c(N2CCN(C(=O)NCc3ccccc3)CC2)nc2ccccc21 | 3% |
| Cc1ccc2nsnc2c1S(=O)(=O)NCc1ccc2c(c1)OCO2 | u |
| Cn1c(N)c(C(=O)COC(=O)c2cc(C3CC3)nc3ccccc23)c(=O)n(C)c1=O | u |
| COc1ccc(OC(C)C(=O)Nc2cccc(OC)c2)cc1 (stereo not drawn) | 2% |
| Cc1nc2[nH]onc2c2nccc(=O)c12 | -2% |
| CCOC(=O)CSc1nnc(-c2ccccc2OC)o1 | 1% |
| Cc1nn(Cc2ccc(F)cc2)c(C)c1NC(=O)c1cnn2cccnc12 | -29% |
| Cc1cc2nc(C3CCN(CC4COc5ccccc5O4)CC3)[nH]c2cc1C (stereo not drawn) | 1% |
| O=C(CSCc1ccccc1Cl)N1CCN(c2ccccn2)CC1 | 32µM* |
| CCOc1nc(-c2ccc(OC)cc2)ccc1-c1noc(-c2ccncc2)n1 | -11% |
| CCOC(=O)C(C)Oc1cccc2c(=O)n(CC(=O)Nc3ccc4c(c3)OCCO4)ccc12 (stereo not drawn) | u |
| CCCc1nc(SCC(=O)Nc2ccccc2OC)c2c(=O)n(C)c(=O)n(C)c2n1 | 11% |
| O=C(CSc1nnc(-c2ccco2)n1Cc1ccccc1)NC(=O)NCc1ccco1 | -15% |
| COC(=O)C1C2C=CC3(CN(c4ccc(Cl)c(F)c4)C(=O)C13)O2 (stereo not drawn) | 0% |
| OCCN(Cc1ccccc1)Cc1ccccc1F | 10% |
| O=C(O)c1cn(-c2ccccc2)nc1-c1ccncc1 | 25µM* |
| Cc1nc2ccc(F)cc2cc1C(=O)NC(C)C | 3% |
| Cc1cc(OCC(=O)N2CCCC2)ccc1Cl | 4% |
| O=C(CSc1nnnn1-c1ccc2c(c1)OCCO2)OC1CCCCC1 | -4% |
| CCC[C@H](Sc1nc(N)nc2nc[nH]c12)C(=O)O | -2%[11.4 µM] |
| Cc1ccc(N2CCN(C(=O)N3CCCC3)CC2)cc1Cl | -1% |

Some of the compounds tested, so the mix of outcomes need not match the whole.
